NPYLR7 agonist: activates Aedes aegypti NPYLR7 receptor. activation, % at 10 µM. HEK293T NPYLR7/Galpha15, GCaMP6s calcium fluorescence. AID 1259423. actives 0.15% (n = 270,000); in the data active = activation above about 40%;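 also: 0% = vehicle and 100% = reference agonist at the receptor; some compounds past the cut are filed as inactive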
NPYLR7 agonist max-min: further read-out of NPYLR7 agonist, marked with its call; activation, %; measured here: Max-Min RFU normalised activation; some inactives read as strong as hits;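 span of the calcium signal over five minutes; 0% = vehicle and 100% = native peptide agonist; compound fluorescence can raise it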
An asterisk follows results filed as active.

FC(F)(F)c1ccc(/C=C/C2SCCCS2)cc1 was read as NPYLR7 agonist -7 and NPYLR7 agonist max-min -7.
Screening CCCCC(=O)Nc1ccc(C)cc1NC(=O)c1oc(CC)nc1C returned NPYLR7 agonist 5 and NPYLR7 agonist max-min -3.
Screening COc1ccc(NC(=O)/C(C#N)=C/N2CCN(c3cccc(C)c3C)CC2)cc1 returned NPYLR7 agonist 2 and NPYLR7 agonist max-min -4.
C=C(C)COc1ccc(C(=O)NCc2nccn2CC)cc1 was read as NPYLR7 agonist 0 and NPYLR7 agonist max-min -3.
`CCCCN(C(=O)CCCCl)c1c(N)n(CCCC)c(=O)[nH]c1=O` gave NPYLR7 agonist -7 and NPYLR7 agonist max-min -11.
CCN(Cc1noc(C)n1)C(=O)c1ccc2cccc(Cl)c2n1 was read as NPYLR7 agonist 28 and NPYLR7 agonist max-min 27.
For COC(=O)Cn1c(Sc2cccc(Cl)c2)nc2c(=O)n(C)c(=O)n(C)c21 the results were NPYLR7 agonist 1 and NPYLR7 agonist max-min 1.
Screening O=C1CSc2ccc(C(=O)NN3C(=O)NC4(CCCCC4)C3=O)cc2N1 returned NPYLR7 agonist 4 and NPYLR7 agonist max-min 4.
O=C(NC1CC(=O)N(CCCc2ccccc2)C1)c1ccco1 (configuration not stated) was read as NPYLR7 agonist 9 and NPYLR7 agonist max-min 3.
CCCC(=O)N1CCOCC1c1cc(C(=O)NCc2ccccc2)no1 (configuration not stated) was read as NPYLR7 agonist 4 and NPYLR7 agonist max-min 0.
For COc1ccccc1/C=C/CN1CCNC(=O)C1CC(=O)NCc1ncccc1C (configuration not stated) the results were NPYLR7 agonist 0 and NPYLR7 agonist max-min -4.
`O=C(NCCC(=O)N1CCCCCC1)Nc1ccc(-c2nnnn2C2CC2)cc1` gave NPYLR7 agonist 2 and NPYLR7 agonist max-min 0.
For CCc1nnc(NC(=O)CSc2ccc(C)c(C)c2)s1 the results were NPYLR7 agonist 4 and NPYLR7 agonist max-min -2.
`CCOC(=O)C1(C)CCCN1C(=O)c1ccc(Cl)nc1` (configuration not stated) gave NPYLR7 agonist -2 and NPYLR7 agonist max-min -5.
For Cc1nc(CNc2cc(C(=O)N3CC(C)CC(C)C3)ccc2C)no1 (configuration not stated) the results were NPYLR7 agonist 2 and NPYLR7 agonist max-min 0.
CCNC(=O)N(C)c1c(CC)nc2ccc(C(=O)N3CCCCC3)cn12 was read as NPYLR7 agonist -3 and NPYLR7 agonist max-min -6.
Screening CCOC(=O)Cn1nc(C(F)F)c(Br)c1C returned NPYLR7 agonist -2 and NPYLR7 agonist max-min -5.
`CCCCNc1nccnc1-c1ccc(O)cc1` gave NPYLR7 agonist -5 and NPYLR7 agonist max-min -9.
For O=C(NCC(O)c1ccco1)Nc1nncn1Cc1ccccc1 (configuration not stated) the results were NPYLR7 agonist 1 and NPYLR7 agonist max-min 2.
O=C(C(c1ccccc1)C1CCCC1)N1CCC(O)(C(=O)O)CC1 (configuration not stated) was read as NPYLR7 agonist 3 and NPYLR7 agonist max-min 0.
CC(CNC(=O)C1CCS(=O)(=O)CC1)N(C)c1ccccc1 (configuration not stated) was read as NPYLR7 agonist 5 and NPYLR7 agonist max-min 4.
For COc1cccc(C(CN2CCN(C(=O)COCc3ccccc3)CC2)OCc2cccc(Cl)c2)c1 (configuration not stated) the results were NPYLR7 agonist -2 and NPYLR7 agonist max-min 1.
For COc1ccc(NC(=S)N2CCn3c2nc2ccccc23)cc1 the results were NPYLR7 agonist 1 and NPYLR7 agonist max-min -1.
Screening Cc1ccc(Cl)c(OC2CC3CCC(C2)N3C(=O)c2ccc(CSc3ncccn3)cc2)c1 (configuration not stated) returned NPYLR7 agonist 4 and NPYLR7 agonist max-min 14.
Screening O=C(CCCc1nc2ccccc2c(=O)[nH]1)N1CCc2sccc2C1 returned NPYLR7 agonist -3 and NPYLR7 agonist max-min -5.
Screening Cc1cc(NC(=O)C2CC2)sc1C(=O)N1CCc2ccccc2C1 returned NPYLR7 agonist -4 and NPYLR7 agonist max-min -4.
Screening COc1ccc(C2CC2NC(=O)C(=O)Nc2ccc(C)cc2F)cc1 (configuration not stated) returned NPYLR7 agonist 12 and NPYLR7 agonist max-min 3.
COc1ccccc1-c1nc(C)c(-c2ccc(SCC(=O)N3CCOCC3)nn2)s1 was read as NPYLR7 agonist 2 and NPYLR7 agonist max-min 5.
For Oc1ccc(Cl)cc1/C=C\C12CN3CN(CN(C3)C1)C2 the results were NPYLR7 agonist -1 and NPYLR7 agonist max-min -3.
For COCCc1noc(-c2cn(CC3CCCCC3)nn2)n1 the results were NPYLR7 agonist 9 and NPYLR7 agonist max-min -10.
COc1ccc(-c2cc3ccc4c(c3oc2=O)CN(C2CC2)CO4)c(OC)c1 was read as NPYLR7 agonist 1 and NPYLR7 agonist max-min 9.
Screening O=C(CSc1nnc(-c2ccc(Cl)cc2)n1-c1ccccc1)N/N=C\c1c(Cl)cccc1Cl returned NPYLR7 agonist 5 and NPYLR7 agonist max-min 14.
`Clc1cccc(-c2nccn2-c2ccc(-n3cnnn3)cc2)c1` gave NPYLR7 agonist 7 and NPYLR7 agonist max-min 2.
CC(C)c1nn(C(C)C)c(=O)c2c1cnn2C(C)(C)C was read as NPYLR7 agonist 3 and NPYLR7 agonist max-min 0.
C=C(C)C1Cc2c(ccc(C(=O)O)c2O)O1 (configuration not stated) was read as NPYLR7 agonist -4 and NPYLR7 agonist max-min -8.
COc1cccc(Cc2nsc(N3CCCN(C(=O)Nc4ccc(Cl)cc4)CC3)n2)c1 was read as NPYLR7 agonist 16 and NPYLR7 agonist max-min 19.

Overlap with the part before: 6 compounds, followed by the next part.
COc1ccc(-c2cc3ccc4c(c3oc2=O)CN(C2CC2)CO4)c(OC)c1 was read as NPYLR7 agonist 1 and NPYLR7 agonist max-min 9.
Screening O=C(CSc1nnc(-c2ccc(Cl)cc2)n1-c1ccccc1)N/N=C\c1c(Cl)cccc1Cl returned NPYLR7 agonist 5 and NPYLR7 agonist max-min 14.
`Clc1cccc(-c2nccn2-c2ccc(-n3cnnn3)cc2)c1` gave NPYLR7 agonist 7 and NPYLR7 agonist max-min 2.
CC(C)c1nn(C(C)C)c(=O)c2c1cnn2C(C)(C)C was read as NPYLR7 agonist 3 and NPYLR7 agonist max-min 0.
C=C(C)C1Cc2c(ccc(C(=O)O)c2O)O1 (configuration not stated) was read as NPYLR7 agonist -4 and NPYLR7 agonist max-min -8.
COc1cccc(Cc2nsc(N3CCCN(C(=O)Nc4ccc(Cl)cc4)CC3)n2)c1 was read as NPYLR7 agonist 16 and NPYLR7 agonist max-min 19.
Cc1sc2nc[nH]c(=O)c2c1C was read as NPYLR7 agonist 1 and NPYLR7 agonist max-min 4.
Cc1cc(S(=O)(=O)N(C)C)cc(NC(=O)C=Cc2cccs2)c1C was read as NPYLR7 agonist 5 and NPYLR7 agonist max-min 0.
Screening O=S(=O)(NCCc1nnc2ccc(SCc3c(F)cccc3Cl)nn12)c1ccccc1 returned NPYLR7 agonist 6 and NPYLR7 agonist max-min -4.
Cc1ccccc1N1CCN(C2CCCN(CC3CCCC3)C2)CC1 (configuration not stated) was read as NPYLR7 agonist 8 and NPYLR7 agonist max-min 9.
For O=c1[nH]nc(CCc2ccccc2O)n1C1CCCCC1 the results were NPYLR7 agonist 1 and NPYLR7 agonist max-min -1.
For CC1(Cc2ccc(S(C)(=O)=O)cc2)C(=O)Nc2ccc(-c3ccc(F)c(Cl)c3)cc21 (configuration not stated) the results were NPYLR7 agonist 2 and NPYLR7 agonist max-min 0.
COc1ccc(-c2cc3nc(NCCNC(C)=O)n(C)c(=O)c3s2)c(C)c1 was read as NPYLR7 agonist 11 and NPYLR7 agonist max-min 8.
CCOC(=O)c1ccc2c(c1)nc(SCC(=O)NCc1ccco1)n2CCOC was read as NPYLR7 agonist 17 and NPYLR7 agonist max-min 25.
Screening CN(C)C(=O)c1ccc(-c2cc3cnc(Nc4ccccn4)cc3n2Cc2ccccc2)cc1 returned NPYLR7 agonist -8 and NPYLR7 agonist max-min -12.
`COc1ccc(C2=NN(C(=O)CN3CCC4(CC3)OCCO4)C(c3ccccc3OC)C2)c(OC)c1` (configuration not stated) gave NPYLR7 agonist -5 and NPYLR7 agonist max-min 8.
For CC(NC(=O)c1coc(CN(Cc2cccc(C(F)(F)F)c2)Cc2ccc(F)cc2F)n1)c1ccccc1 (configuration not stated) the results were NPYLR7 agonist 19 and NPYLR7 agonist max-min 11.
For CCC(C(=O)N1C[C@H]2CC=CC[C@H]2C1)n1cccn1 (some centres not stated) the results were NPYLR7 agonist 7 and NPYLR7 agonist max-min 3.

4 records drawn at random from those above:
CCOC(=O)c1ccc2c(c1)nc(SCC(=O)NCc1ccco1)n2CCOC was read as NPYLR7 agonist 17 and NPYLR7 agonist max-min 25.
Screening CN(C)C(=O)c1ccc(-c2cc3cnc(Nc4ccccn4)cc3n2Cc2ccccc2)cc1 returned NPYLR7 agonist -8 and NPYLR7 agonist max-min -12.
Screening O=S(=O)(NCCc1nnc2ccc(SCc3c(F)cccc3Cl)nn12)c1ccccc1 returned NPYLR7 agonist 6 and NPYLR7 agonist max-min -4.
Cc1ccccc1N1CCN(C2CCCN(CC3CCCC3)C2)CC1 (configuration not stated) was read as NPYLR7 agonist 8 and NPYLR7 agonist max-min 9.

Continuation.
For CSc1nccc(-c2cc(Cl)c3c(c2)CC(CNC(=O)c2cc(C)nn2C)O3)n1 (configuration not stated) the results were NPYLR7 agonist 8 and NPYLR7 agonist max-min 6.
For Cc1ncc(CN(C)C(=O)Nc2cccc(N(C)C(C)C)c2)s1 the results were NPYLR7 agonist 0 and NPYLR7 agonist max-min -1.
`CCCCC(CC)C(=O)Oc1ccc(-c2nc3ccccn3c2NC(C)(C)CC(C)(C)C)cc1OC` (configuration not stated) gave NPYLR7 agonist 8 and NPYLR7 agonist max-min 12.
Cc1nc2n(n1)C(=O)C(C(c1ccco1)N1CCN(C(=O)c3ccco3)CC1)S2 (configuration not stated) was read as NPYLR7 agonist 2 and NPYLR7 agonist max-min 0.
CCOC(=O)N1CCN(C(=O)Cn2c(-c3cccnc3)nc3ccccc32)CC1 was read as NPYLR7 agonist -5 and NPYLR7 agonist max-min -10.
For CCOc1ccc(-c2ccc(C)c(NC(=O)CC(C)C)c2)nn1 the results were NPYLR7 agonist 2 and NPYLR7 agonist max-min 16.
CC(CC(=O)Nc1ccccc1-c1nn[nH]n1)CC(C)(C)C (configuration not stated) was read as NPYLR7 agonist 5 and NPYLR7 agonist max-min 0.
Screening O=C(CC(c1ccccc1)c1ccc2c(c1)OCO2)NCCn1cccn1 (configuration not stated) returned NPYLR7 agonist 16 and NPYLR7 agonist max-min 15.
For COc1ccc(C2C(C#N)C(=N)C(C#N)(C#N)C3=CCSCC32)cc1 (configuration not stated) the results were NPYLR7 agonist -5 and NPYLR7 agonist max-min -7.
`CC(=O)c1cccc(CN2CCCC2C(=O)Nc2cccc(-n3cccn3)c2)c1` (configuration not stated) gave NPYLR7 agonist 9 and NPYLR7 agonist max-min -2.
`C=CCCC(O)CN(CCc1nc(-c2cccc([N+](=O)[O-])c2)no1)Cc1ccco1` (configuration not stated) gave NPYLR7 agonist -7 and NPYLR7 agonist max-min -5.
`COc1ccc(S(=O)(=O)N(Cc2nccn2Cc2ccc(Cl)c(Cl)c2)CC2CCCO2)cc1` (configuration not stated) gave NPYLR7 agonist -2 and NPYLR7 agonist max-min 8.
For COc1ccc(N2CCN(C(c3cccs3)C(C)NC(=O)C(=O)N3CCOCC3)CC2)cc1 (configuration not stated) the results were NPYLR7 agonist -5 and NPYLR7 agonist max-min -4.
Screening COc1cccc(OC)c1OCc1nc(C(=O)NCc2ccccn2)cs1 returned NPYLR7 agonist 24 and NPYLR7 agonist max-min 20.
O=C(NCC1CCCO1)c1csc(-c2ccsc2)n1 (configuration not stated) was read as NPYLR7 agonist 9 and NPYLR7 agonist max-min 3.
For CC(C)CCN1CCNC(=O)C1CC(=O)N1CCc2[nH]nc(C3CC3)c2C1 (configuration not stated) the results were NPYLR7 agonist 8 and NPYLR7 agonist max-min 3.
For COc1ccccc1C(=O)N1CCN(c2ncccc2C(=O)NCc2cccs2)CC1 the results were NPYLR7 agonist 16 and NPYLR7 agonist max-min 4.
Screening O=C(CN1CN(c2ccccc2)C2(CCN(C(=O)/C=C/c3ccccc3)CC2)C1=O)NCc1ccco1 returned NPYLR7 agonist 17 and NPYLR7 agonist max-min 14.
For CC(NC(=O)CCN(Cc1ccco1)c1nc(C2CC2)nc2ccccc12)c1ccccc1 (configuration not stated) the results were NPYLR7 agonist -22 and NPYLR7 agonist max-min -9.
COc1cccc2cc(C(=O)NC(C)=O)c(=Nc3cccc(F)c3)oc12 was read as NPYLR7 agonist -6 and NPYLR7 agonist max-min -8.
Screening O=C(CSc1nc2c(cnn2-c2ccccc2)c(=O)[nH]1)NCc1ccc2c(c1)OCO2 returned NPYLR7 agonist -1 and NPYLR7 agonist max-min -2.
Cc1ccc(Cn2nnc3c(=O)n(CC(=O)N4CCC(C)CC4)cnc32)cc1 was read as NPYLR7 agonist -2 and NPYLR7 agonist max-min -2.
For CCCn1nccc1NC(=O)Nc1cc(C(=O)OCC)n(C)c1 the results were NPYLR7 agonist 2 and NPYLR7 agonist max-min 0.
For COc1ccc(OC)c2c1CN(CC(=O)NCc1ccc(N(C)C)cc1)CC2O (configuration not stated) the results were NPYLR7 agonist -3 and NPYLR7 agonist max-min -5.
CN1CC(=O)N(CC(O)c2ccc(F)cc2)C1=O (configuration not stated) was read as NPYLR7 agonist -4 and NPYLR7 agonist max-min -4.
For CC(NC(=O)NCCO)c1ccc(OCc2ccc(F)cc2)cc1 (configuration not stated) the results were NPYLR7 agonist 7 and NPYLR7 agonist max-min 9.
Screening CCCc1ccc(C(O)c2ncc(-c3ccccc3)[nH]2)cc1 (configuration not stated) returned NPYLR7 agonist -1 and NPYLR7 agonist max-min -3.
Screening CCCCCN(CC(=O)Nc1cc(C(C)(C)C)nn1-c1ccc(C)cc1C)C(=O)c1ccc2c(c1)OCO2 returned NPYLR7 agonist 10 and NPYLR7 agonist max-min 15.
Screening COCCN(Cc1csc(COc2ccccc2OC)n1)C(=O)c1ccco1 returned NPYLR7 agonist 20 and NPYLR7 agonist max-min 32.

Some of the compounds tested; the hit share may differ from the screen's.
